Compound activity: PubChem BioAssay, National Center for Advancing Translational Sciences (NCATS)
HTT prom inh: inhibits huntingtin promoter activity. HEK293 HTT promoter firefly luciferase reporter (activity 0% = vehicle and -100% = no light), 24 h. Potency, µM (titrated, usually from 57.5 µM), for the others: at the highest dose activity change, negative = inhibition, hits mostly inhibitors. 48,000 compounds, 0.93% hits. AID 1508623; active = well fitted inhibition curve with a large enough effect; inconclusive = small, poorly fitted or top-dose-only effect; inactive = no such curve, though single readings can be large or run the other way; also: nearly all actives have a fitted effect of over 50% in size
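Luminescence was read after Dual-Glo reagent and a 10 min room-temperature incubation. Values were normalized to vehicle (0% activity) and zero RLU (-100% activity). Reporter HEK293 cells had been exposed to compounds (up to 57.5 uM final) for 24 h.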
PMP22 txn: modulators of PMP22 gene transcription in S16 Schwann cells. Potency, µM (titrated, usually from 57.5 µM), for inactives: top-dose activity change, negative = inhibition, most hits filed as inhibitors. S16 Pmp22-F2sN Schwann cells (luciferase reporters placed in the Pmp22 gene), FLuc/NLuc coincidence luminescence, 24 h. 43,000 compounds, 2% hits; active = clear falling dose curves in both reporters; inconclusive = both reporters move, but less clearly or upward; inactive = either reporter flat; the % is the NLuc reporter signal; also: % is scaled to controls: 0 for no effect and ±100 for the full control effect; some results filed as inactive show a strong effect at the top dose
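S16(c9) Schwann cells with FLuc/NLuc coincidence reporter in the Pmp22 3' UTR; compounds pin-transferred, 24 h at 37C. Dual-luciferase read: FLuc first, then NLuc after Stop&Glo, each 10 min at room temperature.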
* = called active by the depositor; ? = inconclusive; nt = no result given; [ ] = another dose, or the depositor's remark. Potency is read from the fitted curve at half-maximal effect.

Compound | HTT prom inh | PMP22 txn
CN(C)c1ccc(C2CC(c3c(O)n(C4CCCCC4)c(=O)[nH]c3=O)=Nc3ccccc3S2)cc1 (stereo unspecified) | ? | -17%
COc1ccc(Cl)cc1NC(=O)Cn1cnc2sc(C)c(S(=O)(=O)N3CCN(c4ccccc4OC)CC3)c2c1=O | -5% | ?
Cc1nc2ccccc2n1CCc1nc2c3ccccc3nc(SCc3cccc(F)c3)n2n1 | -20% | ?
COc1ccc(NC(=O)CCSc2nc(-c3ccco3)cc(C(F)(F)F)n2)cc1OC | -21% | 15%
Cc1cc(=O)c2cc(C(=O)Nc3cccc(C)c3C)ccc2[nH]1 | -23% | -21%
CCC1CCc2nc3sc(C(=O)Nc4ccc(F)cc4F)c(N)c3cc2C1 (stereo unspecified) | 15% | -41%
COc1cc(OC)cc(-c2nc3nc(C)c(CCC(=O)NCCC(C)C)c(C)n3n2)c1 | 0% | -4%
CC(C(C)N1CC(=O)NC(=O)C1)N1CC(=O)NC(=O)C1 (stereo unspecified) | -16% | nt
CC1CCN(C(=O)c2cc(-c3ccc(Br)cc3)on2)CC1 | 43%[activator] | -2%
Cc1ccc(CNC(=O)CC2Oc3ccc(Cl)cc3NC2=O)cc1 (stereo unspecified) | -4% | -7%
O=C(CN1C(=O)COc2ccc(Cl)cc21)Nc1cccc(F)c1 | ? | -16%
Cc1ccc(N(CC(=O)N2CCN(c3ccc(F)cc3)CC2)S(=O)(=O)c2c(C)noc2C)cc1 | -24% | -18%
COc1cc(NC(=O)c2c3c(nc4ccccc24)C(=O)N(C2CCCCC2)C3)cc(OC)c1 | -9% | 6%
Cc1cc(Nc2sc(C(=O)c3ccc(F)cc3)c(N)c2C(=O)Nc2ccc(F)cc2)ccc1Cl | ? | 6.3µM*
COc1ccc(OC)c(NC(=O)c2cnc(N3CCCCC3)c3ccccc23)c1 | -27% | ?
Cn1cc(S(=O)(=O)N2CCCCCC2)cc1C(=O)N1CCN(c2ccc(F)cc2)CC1 | -27% | -19%
COc1ccc(C2=C(C)C(=O)N(Cc3ccc(C(=O)Nc4cccc(F)c4)cc3)S2(=O)=O)cc1 | ? | ?
COc1cccc(CNC(=O)c2ccc3c(c2)N(Cc2ccc(F)cc2Cl)C(=O)c2ccccc2S3)c1 | -20% | -18%
Cc1ccccc1C(=O)N1CCC(c2nc3ccccc3s2)CC1 | ? | ?
O=C(Nc1nnc(-c2cc(Cl)ccc2Cl)o1)c1ccc2c(c1)OCCO2 | -11% | -4%
O=C(CNC(=O)c1ccccc1)OCc1cc(=O)n2nc(C3CCCCC3)sc2n1 | -4% | -2%
CC(=O)NCCn1c(SCC(=O)Nc2ccc(C)cc2)nc2ccccc2c1=O | 15% | -4%
Cc1ccc(CCNC(=O)CCn2nc(-c3ccccc3)ccc2=O)cc1 | 1% | -3%
CCOc1ccccc1NC(=O)NCc1noc2ccc(C)cc12 | -23% | -8%
COc1ccc(Cl)cc1NC(=O)CSc1nccn1-c1ccc(Cl)cc1 | ? | ?
O=C(Cn1c(=O)oc2cc(S(=O)(=O)N3CCCCCC3)ccc21)Nc1cccc(C(F)(F)F)c1 | ? | ?
CCCN(CCC)CCCNC(=O)Cn1ncn2c(cc3sc(CC)cc32)c1=O | 3% | -41%
O=C(O)CCCCCC(=O)NN=C1CCCC1 | 0% | nt
O=C(Nc1ccc(O)c(-c2nc3ccccc3o2)c1)c1ccco1 | -1% | 1%
CCNC(=O)Cn1c(-c2cccs2)cc2ccccc21 | -24% | 3%
O=C(NCCc1nc2ccccc2n1Cc1ccccc1)c1ccco1 | -9% | -21%
Cc1cccc(NC(=O)CSc2nc3c(oc4ccccc43)c(=O)n2-c2ccccc2)c1C | -11% | ?
Cc1ccc(C2=NN(CC(=O)NC(C)c3ccccc3)C(=O)CC2)cc1 (stereo unspecified) | -8% | 12%
Cc1cc(NC(=O)C(C)(C)Oc2ccc(Cl)cc2)cc(-c2nc3ncccc3o2)c1O | -11% | -19%
CN1C(=O)c2ccccc2Sc2ccc(NC(=O)NCc3cccc(Cl)c3)cc21 | ? | ?
O=C(c1ccccc1)N1CCC(c2nc3ccccc3o2)CC1 | -16% | -28%
CCc1cccc(NS(=O)(=O)c2ccc(-n3cccn3)cc2)c1 | 35µM* | ?
Cc1cccc(Nc2cc(C)nc(-n3nc(C)cc3C)n2)c1 | ? | 9.2µM*
COc1cccc(Nc2ccc3cc(S(=O)(=O)N4CCC(C)CC4)ccc3n2)c1 | -12% | ?
O=C1CC(c2ccc(F)cc2)c2c(n3c(nc4ccccc43)[nH]c2=O)N1 (stereo unspecified) | -10% | 26%
CCN(CC)c1ccc(NC(=O)c2sc3ccccc3c2Cl)cc1 | 22% | ?
CCCCC(=O)Nc1nnc(S(=O)(=O)N(C)Cc2ccc(Cl)cc2)s1 | 7% | 34%
O=C(Nc1ccc(F)c(F)c1)C(c1ccccc1)N1Cc2ccccc2C1=O (stereo unspecified) | -12% | ?
CC(=O)N(Cc1cccnc1)c1nc2c(C)cccc2s1 | -19% | -15%
Cc1cc2ccccc2n1-c1ccc(C(=O)N2CCCCC2)s1 | -17% | -47%
COc1cccc(N2CC(NC(=O)c3ccc(S(=O)(=O)N4CCCC4)cc3)CC2=O)c1 (stereo unspecified) | ? | -12%
O=C(NCCc1ccccc1)C1CCC(CNS(=O)(=O)c2ccc(Cl)cc2)CC1 (stereo unspecified) | 10% | -9%
Cc1ccc(-c2cc(C(=O)N3CCN(S(=O)(=O)c4ccc(Br)cc4)CC3)[nH]n2)cc1C | 7% | ?
O=C(NCc1ccc(F)cc1)c1cc2n(n1)CCCN(Cc1ccc(F)cc1)C2=O | 32% | -18%
CCOc1ccc(NC(=O)CSc2nnc3c(C)cc4ccccc4n23)cc1 | 3% | -8%
CCc1nn(CC(=O)N2CCCCC2)c(=O)c2cc3occc3n12 | -8% | -18%
Cc1cc(Nc2ccc(C(C)C)cc2)nc(-n2nc(C)cc2C)n1 | ? | ?
COc1ccc2c(CNCc3cccs3)c(C(=O)O)n(Cc3ccccc3F)c2c1 | -15% | 2%
CCC(=O)N1CCc2cc(S(=O)(=O)CCC(=O)N(C)c3ccc(OC)cc3)ccc21 | 8% | -43%
O=C(CSc1n[nH]c(-c2ccccc2)n1)NCCc1ccccc1 | -14% | -4%
COc1ccc(CCNC(=O)c2ccc3c(c2)CCN3S(=O)(=O)c2ccc(C)cc2)cc1OC | ? | -5%
Cc1nc2cc(-c3ccccc3)nn2c(C)c1CCC(=O)NCc1cccc(Cl)c1 | 13µM* | -18%
COc1ccc(CCNC(=O)CS(=O)Cc2nc(-c3ccc(C)cc3)oc2C)cc1OC (stereo unspecified) | -26% | -1%
Cn1ccc2cc(S(=O)(=O)N3CCN(C(=O)Nc4ccc(F)cc4F)CC3)ccc21 | -29% | 1%
O=C(CCC1N=C2c3ccccc3N=C(SCc3ccc(F)cc3)N2C1=O)NC1CCCCC1 (stereo unspecified) | -11% | ?

The list goes on.
Compound | HTT prom inh | PMP22 txn
CCc1ccc(NC(=O)CSc2nc(=O)n(Cc3ccncc3)c3c2CCC3)cc1 | -28% | ?
CCCN1C(=O)C(O)(CC(=O)c2ccc(C(C)C)cc2)c2ccccc21 (stereo unspecified) | ? | -15%
CC1CCN(S(=O)(=O)c2csc(C(N)=O)c2)CC1 | -11% | -14%
CCCN(CCC)S(=O)(=O)c1ccc(C(=O)Nc2sc3c(c2C(=O)OC)CCN(CC)C3)cc1 | ? | ?
Cc1ccc(-c2cn3c(n2)sc2cc(C(=O)NCCCN4CCCCC4)ccc23)cc1 | ? | 8.9µM*
CCOc1ccc(NC(=O)CCc2nnc3n(C)c(=O)c4sccc4n23)cc1 | -6% | -2%
O=C1CC(c2cccc(F)c2)c2c(n3ncnc3[nH]c2=O)N1 (stereo unspecified) | -16% | -2%
CCN(CC)CCCNC(=O)CCCn1c(=O)[nH]c2ccc(Br)cc2c1=O | -5% | ?
Cc1nc2c3ccccc3nc(NNC(=O)CCC(=O)N3CCN(c4ccc(F)cc4)CC3)n2n1 | -20% | -20%
O=C(CSc1nccn1-c1ccccc1)Nc1nc2ccccc2s1 | 0% | -23%
CCN1c2ccccc2-c2nc(SCC(=O)Nc3cccc(C(F)(F)F)c3)ncc2S1(=O)=O | ? | -21%
CCCn1c(=N)c(C(=O)NCc2ccco2)cc2c(=O)n3cc(C)ccc3nc21 | 2% | -41%
O=C(NCCS(=O)(=O)N1CCN(c2ccc(F)cc2)CC1)c1cc(=O)c2ccccc2o1 | -18% | 1%
O=C(CC1N=C2c3ccccc3N=C(SCc3cccc(F)c3)N2C1=O)NCc1cccs1 (stereo unspecified) | -28% | -6%
CCOC(=O)c1ccc(NC(=O)Cn2nc(C)c3nn(-c4ccc(Cl)cc4)c(C)c3c2=O)cc1 | -21% | 0%
CCc1nnc(NC(=O)CSc2nccn2Cc2ccccc2)s1 | -28% | -26%
COc1ccc(CNC(=O)CCn2nc(C)c3c(C)n(-c4ccccc4)nc3c2=O)c(OC)c1 | 11% | 5%
COc1ccccc1-c1ccnc2[nH]n(-c3ccccc3)c(=O)c12 | -11% | -12%
CCOC(=O)c1scc(-c2ccccc2)c1S(=O)(=O)N1CCN(c2ccccc2OC)CC1 | ? | ?
Cc1ccc(S(=O)(=O)c2nc(-c3ccccc3)oc2N2CCCCCC2)cc1 | ? | ?
CCC(C)n1c(=O)c2sccc2n2c(CCCC(=O)NCc3ccccc3Cl)nnc12 (stereo unspecified) | -19% | -10%
Cc1cccc(NC(=O)CSc2nc(=O)n(Cc3ccncc3)c3c2CCC3)c1C | 0% | 2%
CCn1c(=O)cc(OCC(=O)N2CCN(c3ccc(OC)cc3)CC2)c2ccccc21 | -15% | -45%
C=CC(=O)Nc1cccc(Oc2nc(Nc3ccc(N4CCN(C)CC4)cc3)ncc2Cl)c1 | -14% | nt
CN(C)CCC(c1ccccc1)c1ccccn1 (stereo unspecified) | 14% | nt
CC(C)(C)c1ccc(OCC(=O)Nc2c(C(=O)c3ccc(F)cc3)oc3ccccc23)cc1 | 8% | -12%
COc1cccc(NC(=O)c2ccc3c(=O)n4nc(Nc5ccccc5OC)sc4nc3c2)c1 | -8% | ?
Cc1ccc(-c2noc(-c3nnn(CC(=O)Nc4ccc(C)cc4Cl)c3N)n2)cc1 | -7% | 7%
O=C(Cn1c(=O)oc2ccccc21)NCc1ccccc1Cl | 59%[activator] | ?
O=c1c2ccccc2n2c(-c3ccc(F)c(F)c3)nnc2n1CCc1ccccc1 | 1% | -43%

Pulled by compound from the list above (6):
Compound | HTT prom inh | PMP22 txn
Cc1cccc(NC(=O)CSc2nc(=O)n(Cc3ccncc3)c3c2CCC3)c1C | 0% | 2%
COc1cccc(NC(=O)c2ccc3c(=O)n4nc(Nc5ccccc5OC)sc4nc3c2)c1 | -8% | ?
CCN1c2ccccc2-c2nc(SCC(=O)Nc3cccc(C(F)(F)F)c3)ncc2S1(=O)=O | ? | -21%
CCOC(=O)c1scc(-c2ccccc2)c1S(=O)(=O)N1CCN(c2ccccc2OC)CC1 | ? | ?
Cc1nc2c3ccccc3nc(NNC(=O)CCC(=O)N3CCN(c4ccc(F)cc4)CC3)n2n1 | -20% | -20%
Cc1ccc(S(=O)(=O)c2nc(-c3ccccc3)oc2N2CCCCCC2)cc1 | ? | ?

Remaining list, next part.
Compound | HTT prom inh | PMP22 txn
Cc1ccc(C)c(NC(=O)Cn2c(=O)nc(-c3ccccc3)c3ccccc32)c1 | -14% | 0%
COc1cc(-c2nnc(SCCOc3ccc(Cl)cc3)o2)cc(OC)c1OC | -14% | -49%
Cc1cccc(NC(c2ccccc2C)c2ccc3ccc(C)nc3c2O)n1 (stereo unspecified) | ? | ?
Clc1cccc(CSc2nncn3c2cc2sccc23)c1 | 2% | -40%
O=C(c1ccccc1Cl)N1CCCCC1CCN1CCCCC1 (stereo unspecified) | -10% | -15%
CCOC(=O)c1cc(S(=O)(=O)NCc2cccc(Cl)c2)[nH]n1 | 11% | 10%
CCOC(=O)c1cc(NC(=O)c2ccc(Cl)cc2)c(=O)n2c1oc1ccccc12 | -1% | 9%
Cc1ccccc1NC(=O)Cn1c(=O)n(Cc2ccccc2)c(=O)c2sc3ccccc3c21 | -11% | -23%
Cc1ccc(-n2ncc(C(=O)NCc3ccco3)c2C2CCN(C(=O)OC(C)(C)C)CC2)cc1C | -28% | ?
Cc1cc(Br)ccc1NC(=O)c1coc(=O)c2ccccc12 | ? | -3%
COc1cccc(-n2ccnc2SCC(=O)Nc2c(C)cc(C)cc2C)c1 | ? | 3%
CC(O)=C(C#N)C(=O)Nc1ccc(C(F)(F)F)cc1 | ? | nt
COc1ccccc1C1C(C(=O)N2CCCCC2)=C(C)Nc2nc3ccccc3n21 (stereo unspecified) | -13% | -18%
COc1ccc(-c2cn3cccnc3n2)cc1NC(=O)Nc1cc(C)ccc1C | 24% | ?
